MLL AF4-AF9 inh = inhibitors of AF4 peptide binding to AF9, primary screen, biochemical, AlphaScreen, biotin-AF4 peptide, FLAG-AF9, single point | Protein AF-9 (Homo sapiens), P42568 | inhibition, % at 10 µM | 350,000 compounds, 0.47% hits;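 active = every replicate reaching a set inhibition limit, whatever the replicate mean, cut at about 25% in these data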;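 note: 0% = plate neutral control median and 100% = total signal loss; the record names both 10 and 1 µM as test concentration; the first replicate is given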
Target sequence (P42568 whole entry, looked up): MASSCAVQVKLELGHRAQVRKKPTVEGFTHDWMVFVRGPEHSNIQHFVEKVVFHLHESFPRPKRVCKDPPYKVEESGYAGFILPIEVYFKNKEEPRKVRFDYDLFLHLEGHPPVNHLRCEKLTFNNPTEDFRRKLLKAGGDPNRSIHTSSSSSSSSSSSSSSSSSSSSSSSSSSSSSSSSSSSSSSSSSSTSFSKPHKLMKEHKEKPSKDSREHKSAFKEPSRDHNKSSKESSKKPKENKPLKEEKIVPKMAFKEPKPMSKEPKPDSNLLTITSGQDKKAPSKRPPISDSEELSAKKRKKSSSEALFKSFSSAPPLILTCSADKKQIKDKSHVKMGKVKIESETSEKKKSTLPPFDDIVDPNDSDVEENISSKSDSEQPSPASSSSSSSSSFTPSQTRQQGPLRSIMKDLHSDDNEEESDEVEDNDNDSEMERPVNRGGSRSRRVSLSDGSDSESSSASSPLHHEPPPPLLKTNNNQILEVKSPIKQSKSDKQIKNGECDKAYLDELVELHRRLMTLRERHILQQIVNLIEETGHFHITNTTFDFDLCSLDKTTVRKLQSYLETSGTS
FGF22 binding = binders of human FGF22 protein, primary screen, FGF22 synaptogenesis inhibitor project, biophysical, thermal shift, single point; 340,000 compounds, 1.5% hits; recombinant FGF22 thermal shift, SYPRO orange fluorescence; percent of sucrose octasulfate shift, DMSO zero; calls only at 9.99 µM; Fibroblast growth factor 22 (Homo sapiens), Q9HCT0; AID 651658, 2012;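 active = melting point raised past a set limit in the mean and every replicate; three in four hits are not shown here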
Target sequence (Q9HCT0 whole entry, looked up): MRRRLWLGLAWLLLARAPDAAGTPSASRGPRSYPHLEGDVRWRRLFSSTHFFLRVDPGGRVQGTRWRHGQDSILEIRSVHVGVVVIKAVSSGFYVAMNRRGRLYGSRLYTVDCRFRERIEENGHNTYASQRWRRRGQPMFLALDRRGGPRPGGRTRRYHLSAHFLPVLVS
rRNA inh HTS = reduced GFP signal of wild-type E. coli, primary screen, bacterial rRNA inhibitor project, GFP/RFP fluorescence, OD600, single point; E. coli WT GFP vs humanized-ribosome RFP mutants, 24 h; hits give low values; DMSO median 0, no signal -100; GFP signal change (wild-type ribosome), % (test concentration not listed); 350,000 compounds, 1.6% hits; AID 720706, 2013;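 active = significant combined selectivity score with lowered wild-type GFP, culture density cut under 30%, mutant RFP and density less affected; inactive = any of these conditions unmet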; note: one replicate is shown; some compounds called inactive have numbers as strong as hits
rRNA inh HTS OD600 = second read-out of rRNA inh HTS, no call of its own (marks repeat the call); OD600 change, %; measured here: OD600 growth;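 optical density of the mix in the first replicate; 0 = DMSO median and -100 = no signal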
rRNA inh HTS RFP = recorded beside rRNA inh HTS, whose call it bears; RFP signal change, %; measured here: RFP humanized mutant strains;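 first replicate; 0 = DMSO median and -100 = no signal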
* hit, by the source's call; i = inactive; + = active, no number; & = joins results of further samples. An excerpt (hit frequency here may not be typical).

SMILES	MLL AF4-AF9 inh	FGF22 binding	rRNA inh HTS	rRNA inh HTS OD600	rRNA inh HTS RFP
COc1ccc(NC(=O)N(C)C[C@@H]2Oc3ccc(NC(=O)Cn4cnnn4)cc3CC(=O)N([C@H](C)CO)C[C@H]2C)cc1	-2.1	i	4	11	1.2
O=S1(=O)C[C@@H](N2CC[C@@H](O)C2)[C@H](COCc2ccccc2)N1	-2.3	i	7	-4	2.6
C[C@@H]1CN([C@@H](C)CO)C(=O)Cc2cc(NS(=O)(=O)c3cccs3)ccc2O[C@@H]1CN(C)Cc1ccccc1	-1.1	i	-4	-23	1.7
O=C(C[C@@H]1CC[C@H]2[C@@H](COC[C@@H](O)CN2S(=O)(=O)c2ccccc2F)O1)NCc1ccccc1Cl	0.2	i	-2	-6	0.6
CC(=O)N(C)C[C@H]1Oc2ncc(C#C[C@H](C)O)cc2C(=O)N([C@H](C)CO)C[C@H]1C	-5.4	i	4	8	-1.8
C[C@@H]1CCCCO[C@H](CN(C)S(=O)(=O)c2cn(C)cn2)[C@@H](C)CN([C@H](C)CO)C(=O)c2cc(NC(=O)NC3CCCCC3)ccc2O1	-3.3	i	5	9	-1.9
CC(C)C(=O)Nc1ccc2c(c1)C(=O)N(C)[C@H]1CC[C@@H](CC(=O)NC3CCCC3)O[C@H]1CO2	-1.0	i	0	-1	-0.7
COc1ccc2c3c(n(C)c2c1)[C@H](CO)N(C(=O)C1CC1)CC31CCN(C(=O)c2ccncc2)CC1	2.1	i	-4	0	-2.3
CN1C(=O)c2cc(NC(=O)c3cccs3)ccc2OC[C@H]2O[C@@H](CC(=O)N3CCCCC3)CC[C@@H]21	-1.9	i	-1	-3	-0.8
C[C@@H]1CN([C@H](C)CO)S(=O)(=O)c2ccc(-c3ccc(C#N)cc3)cc2O[C@@H]1CN(C)C(=O)C1CC1	-10	i	-11	-20	-0.8
COC(=O)[C@@H]1[C@@H](CO)[C@@H]2Cn3c(ccc(C4=CCCC4)c3=O)[C@@H]2N1CC1CCOCC1	-1.6	i	4	3	4.9
CO[C@@H]1CN(C)C(=O)c2cc(NC(=O)c3ccccc3F)ccc2OC[C@H](C)N(C(=O)c2ccccc2F)C[C@@H]1C	2.5	i	-1	-5	-0.7
C[C@H](O)C#Cc1ccc2c(c1)O[C@H](CN(C)Cc1cccnc1)[C@@H](C)CN([C@@H](C)CO)S2(=O)=O	-0.7	i	-2	-5	0.1
CCCCN(C)c1c(C)nc2ccc(C(=O)NC3CCN(C)CC3)cn12	3.4	i	1	10	5.4
O=C(Nc1ccc2c(c1)[C@H]1C[C@H](CC(=O)N3CCOCC3)O[C@H](CO)[C@H]1O2)Nc1ccccc1F	-0.8	i	-2	-2	-1.3
O=C(C[C@H]1C=C[C@H](NC(=O)c2ccncc2)[C@@H](CO)O1)NCCc1ccncc1	-0.1	i	4	2	-4.8
O=C(COC(=O)CNC(=O)c1ccccc1)NC12CC3CC(CC(C3)C1)C2	0.3	i	5	3	2.2
COc1cccc(S(=O)(=O)N(C)C[C@H]2Oc3cc(C4=CCCCC4)ccc3S(=O)(=O)N([C@@H](C)CO)C[C@@H]2C)c1	4.7	i	3	6	-1.9
C[C@@H]1CCCCO[C@@H](CN(C)S(=O)(=O)c2cn(C)cn2)[C@@H](C)CN([C@@H](C)CO)C(=O)c2cc(NC(=O)Nc3ccc4c(c3)OCO4)ccc2O1	-5.6	i	-1	4	-0.2
O=C(c1cc(COc2cccc(C(F)(F)F)c2)on1)N1CCCC1	-2.6	i	-3	-9	6.7
CC1(C(=O)NS(=O)(=O)c2ccccc2)CCN1C(=O)COc1ccc(Cl)cc1 (centres undefined)	3.1	i	19	16	1.7
Cc1nc2sccn2c(=O)c1S(=O)(=O)N1CCN(c2ccccc2F)CC1	-5.7	i	-4	-5	1.8
N#C[C@H]1[C@H](c2ccc(C3=CCCCC3)cc2)[C@@H](CO)N1C(=O)c1ccccn1	2.2	i	1	0	-0.1
CO[C@@H]1CN(C)C(=O)c2ccc(NC(=O)Nc3cccc(Cl)c3)cc2OC[C@H](C)N(C(=O)Nc2c(C)noc2C)C[C@H]1C	-0.7	i	-5	-6	17
CN1c2ccc(-c3ccccc3)cc2[C@H]2[C@H](CCN2C(=O)c2ccc(F)cc2)[C@H]1CO	6.2	i	-8	-42	27
CC(C)C#Cc1ccc2c(c1)O[C@H](CN(C)C(=O)CN(C)C)[C@@H](C)CN([C@@H](C)CO)S2(=O)=O	3.0	i	4	1	-0.7
CCS(=O)(=O)NCC[C@@H]1CC[C@@H](NC(=O)Cc2ccccn2)[C@@H](CO)O1	-3.2	i	-1	-3	3.7
C[C@@H]1CCCCO[C@H](CN(C)Cc2ccc(C(=O)Nc3ccccc3N)cc2)[C@@H](C)CN([C@H](C)CO)C(=O)c2cc(NS(=O)(=O)c3ccc(F)cc3)ccc2O1	-4.5	i	-4	-10	9.5
OC[C@@H]1CN(Cc2cccc(C(F)(F)F)c2)C[C@H](n2cnc3c(NCc4ccco4)ncnc32)O1	-1.6	i	3	-13	4.3
CCC(=O)NC[C@@H]1[C@@H](c2ccc(C3=CCCC3)cc2)[C@@H](CO)N1C(C)=O	-0.9	i	1	8	-0.9
C[C@H]1CN([C@@H](C)CO)C(=O)c2cccc(NS(=O)(=O)c3cn(C)cn3)c2O[C@H]1CN(C)Cc1ccc(C(=O)O)cc1	-1.6	i	0	7	-2.5
Cc1ccc(S(=O)(=O)Nc2ccc3c(c2)C(=O)N([C@H](C)CO)C[C@@H](C)[C@H](CN(C)Cc2ccncc2)OCCCC[C@H](C)O3)cc1	-0.6	i	3	-8	7.9
O=C(CN1CCOCC1)N1CCCCN2[C@H](CO)[C@@H](c3ccc(Br)cc3)[C@@H]2C1	-0.2	i	0	-1	-5.9
C[C@H](CO)N1C[C@H](C)[C@H](CN(C)CC2CCCCC2)Oc2ccc(NC(=O)Cc3cn(C)c4ccccc34)cc2CC1=O	6.2	i	0	-7	5.2
COc1ccc(CN2C(=O)c3ccccc3C2c2nnnn2Cc2ccccc2)cc1 (centres undefined)	0.8	i	-34	-41	-6.0
CCOc1cc2[nH]c(=S)n(CCC(=O)NC3CCCCC3)c(=O)c2cc1OCC	-2.2	i	3	4	-2.1

Single entries from the entries so far.
MLL AF4-AF9 inh, Cc1nc2sccn2c(=O)c1S(=O)(=O)N1CCN(c2ccccc2F)CC1 → -5.7
rRNA inh HTS RFP, CC1(C(=O)NS(=O)(=O)c2ccccc2)CCN1C(=O)COc1ccc(Cl)cc1 (centres undefined) → 1.7

Later entries:
SMILES	MLL AF4-AF9 inh	FGF22 binding	rRNA inh HTS	rRNA inh HTS OD600	rRNA inh HTS RFP
C[C@H](CO)N1C[C@H](C)[C@H](CN(C)S(=O)(=O)c2ccc(F)cc2)Oc2ccc(NC(=O)Cc3cn(C)c4ccccc34)cc2CC1=O	2.0	i	-3	-3	0.4
O=C(NC1CCCC1)N[C@@H]1C=C[C@H](CC(=O)N2CCOCC2)O[C@H]1CO	-1.0	i	4	11	0.2
Cc1sc2ncnc(N3CCC(C(=O)N(C)CC(=O)Nc4cccc(F)c4)CC3)c2c1C	-2.6	i	-27	-63	-2.3
CCCC(=O)N1CC2(CCN(C(=O)C3CCC3)CC2)c2c(n(C)c3cc(OC)ccc23)[C@H]1CO	3.9	i	-3	-9	-1.0
Cc1cc(C)cc(NC(=O)COC(=O)C2CC3C=CC2C3)c1 (centres undefined)	-4.4	i	2	-2	0.9
CC(C)C#Cc1ccc([C@H]2[C@H](CO)N3C(=O)CN(C(=O)C4CCCCC4)C[C@@H]23)cc1	-9.3	+	5	3	2.4
O=C(C[C@@H]1C=C[C@@H](NC(=O)Nc2cc(F)ccc2F)[C@@H](CO)O1)NCc1ccc2c(c1)OCO2	-0.9	i	3	1	1.5
CC(C)C#Cc1ccc2c(c1)O[C@H](CN(C)S(C)(=O)=O)[C@H](C)CN([C@H](C)CO)S2(=O)=O	0.3	i	-5	-10	1.2
C[C@H](CO)N1C[C@H](C)[C@H](CN(C)C(=O)CN(C)C)Oc2cc(-c3ccccc3)ccc2S1(=O)=O	3.1	i	9	5	-0.9
C[C@@H]1CN([C@@H](C)CO)S(=O)(=O)c2ccc(C#CC3CC3)cc2O[C@@H]1CN(C)C(=O)c1ccccn1	0.1	i	-4	4	1.5
C[C@@H]1CCCCO[C@@H](CN(C)S(=O)(=O)c2cn(C)cn2)[C@H](C)CN([C@H](C)CO)C(=O)c2cc(N(C)C)ccc2O1	3.3	i	0	7	2.0
Cc1ccc(S(=O)(=O)N(C)C[C@H]2Oc3ncc(-c4ccccc4)cc3C(=O)N([C@@H](C)CO)C[C@@H]2C)cc1	2.8&-1.2&0.5	i	5&-8	-9&-16	-1.5&3.7

Reformatted with bars between the fields: part of the list above.
SMILES | MLL AF4-AF9 inh | FGF22 binding | rRNA inh HTS | rRNA inh HTS OD600 | rRNA inh HTS RFP
CC(C)C#Cc1ccc([C@H]2[C@H](CO)N3C(=O)CN(C(=O)C4CCCCC4)C[C@@H]23)cc1 | -9.3 | + | 5 | 3 | 2.4
O=C(C[C@@H]1C=C[C@@H](NC(=O)Nc2cc(F)ccc2F)[C@@H](CO)O1)NCc1ccc2c(c1)OCO2 | -0.9 | i | 3 | 1 | 1.5
CC(C)C#Cc1ccc2c(c1)O[C@H](CN(C)S(C)(=O)=O)[C@H](C)CN([C@H](C)CO)S2(=O)=O | 0.3 | i | -5 | -10 | 1.2

Additional entries.
SMILES	MLL AF4-AF9 inh	FGF22 binding	rRNA inh HTS	rRNA inh HTS OD600	rRNA inh HTS RFP
CO[C@@H]1CN(C)C(=O)c2ccc(NC(=O)C3CCCCC3)cc2OC[C@H](C)NC[C@H]1C	-2.7	i	0	1	-0.1
C[C@@H]1CN([C@H](C)CO)C(=O)Cc2cc(NC(=O)CCCCCC(=O)Nc3ccccc3N)ccc2O[C@H]1CN(C)S(=O)(=O)c1ccccc1	-0.2	i	-3	2	-3.8
C[C@@H]1CN([C@H](C)CO)C(=O)c2cccc(NC(=O)C3CC3)c2O[C@H]1CN(C)S(=O)(=O)c1ccc(Cl)cc1	-2.6	i	0	0	-0.8
C[C@H](CO)N1C[C@H](C)[C@@H](CN(C)C)Oc2ccc(NC(=O)CCCN(C)C)cc2CC1=O	0.6	i	3	6	-2.4
O=C(C[C@H]1CC[C@H](NC(=O)Cc2cccnc2)[C@H](CO)O1)NCc1ccc2c(c1)OCO2	-18	i	3	8	4.4
COc1ccc(CCCNC(=O)C2Cc3c(-c4ccc5c(c4)OCO5)ccnc3O2)cc1 (centres undefined)	0.3	i	-19	-47	-9.2
COc1ccc(CCC(=O)O)c(C(CC(=O)O)C(=O)O)c1OS(=O)(=O)c1ccc(C)cc1 (centres undefined)	1.5	+	4	8	-2.3
C[C@H]1CCCCO[C@H](CN(C)S(=O)(=O)c2ccc(Cl)cc2)[C@@H](C)CN([C@@H](C)CO)C(=O)c2cc(NC(=O)Cc3ccccc3)ccc2O1	1.5	i	2	6	1.6
CCNC(=O)C[C@@H]1CC[C@@H]2[C@@H](COc3ccc(NC(=O)c4ccc5c(c4)OCO5)cc3C(=O)N2C)O1	-1.3	i	0	1	1.0
Cn1cnc(S(=O)(=O)N2CCCCN3[C@H](CO)[C@@H](c4ccc(-c5ccccc5F)cc4)[C@@H]3C2)c1	-2.9	i	9	-10	16
CCCNC(=O)N1C[C@H](C)[C@@H](OC)CN(C)C(=O)c2ccc(NC(=O)CC)cc2OC[C@@H]1C	-2.2	i	4	6	-1.4
C[C@@H]1CN([C@H](C)CO)C(=O)CCCn2cc(nn2)CO[C@H]1CN(C)Cc1ccc2c(c1)OCCN2C	0.1	i	-1	0	-4.1
CO[C@H]1CN(C)C(=O)c2cc(NC(=O)C3CCCCC3)ccc2OC[C@H](C)N(Cc2cccnc2)C[C@H]1C	-1.1	i	-2	-4	1.1
Cc1ccccc1-c1ccc([C@H]2[C@H]3CN(C(=O)CN4CCOCC4)CCCCN3[C@H]2CO)cc1	-3.1	i	1	-2	0.6
C[C@H]1CN([C@@H](C)CO)C(=O)c2cccc(NC(=O)Nc3ccccc3)c2O[C@H]1CN(C)CC1CCCCC1	1.5	i	4	-11	0.0
CCCNC(=O)Nc1ccc2c(c1)C(=O)N(C)[C@H]1CC[C@@H](CC(=O)NCC3CCCCC3)O[C@H]1CO2	0.2	i	-6	-16	0.2
C[C@@H]1CCCCO[C@H](CN(C)C(=O)Nc2ccc(F)cc2)[C@@H](C)CN([C@@H](C)CO)C(=O)c2cc(NS(C)(=O)=O)ccc2O1	4.3	i	-2	5	-0.3
CO[C@@H]1CN(C)C(=O)c2cc(NC(=O)C3CC3)ccc2OC[C@@H](C)N(CC2CC2)C[C@H]1C	-0.3	i	-2	0	0.2

Screening data from PubChem.
